Source: PubChem
2A Renilla: FMDV 2A StopGo reporter, Renilla signal | HEK cells with a luciferase reporter of 2A StopGo recoding | Potency, µM (doses to about 57.5 µM), without a hit: at the top dose signal change, negative = less light | 120,000 compounds, 0.32% hits; active means well fitted falling curve with a large enough effect; inconclusive means small, poorly fitted or top-dose-only effect; inactive means no such curve, though single readings can be large or run the other way; also: nearly all actives have a fitted effect of over 55% in size; overnight with compound
StopGo FLuc: FMDV 2A StopGo reporter, firefly signal; HEK cells with a luciferase reporter of 2A StopGo recoding; 120,000 compounds, 0.23% hits; Potency, µM (highest dose often 57.5 µM), inactives show at the highest dose signal change, negative = less light; active = well fitted falling curve with a large enough effect; inconclusive = small, poorly fitted or top-dose-only effect; inactive = no such curve, though single readings can be large or run the other way; also: nearly all actives have a fitted effect of over 60% in size; overnight with compound
Numbers without * were called inactive; ? = inconclusive; & = joins results of further samples; [ ] = remark or other dose. % is scaled to controls: 0 for no effect and ±100 for the full control effect; potency is read from the fitted curve at half-maximal effect. Some of the compounds tested; the hit share may differ from the screen's.

SMILES	2A Renilla	StopGo FLuc
COc1ccc(NC(=O)C2=C(C)Nc3c(C(=O)Nc4ccc(C)cc4)cnn3C2c2cccc(Cl)c2)cc1 (configuration not stated)	4%	-7%
O=C(Cn1ccc2c(Cl)cccc21)Nc1nnc(C2CC2)s1	-11%	6%
Fc1ccc(F)c(Nc2c3c(nc4ccc(Cl)cc24)CCC3)c1	4%	4%
Cc1ccc2c(=O)cc(C(=O)Nc3ccc(S(=O)(=O)N4CCCCC4)cc3)oc2c1C	-3%	-13%
COc1ccc(OC)c(NC(=O)c2cc3c(n(-c4ccc(Cl)cc4)c2=O)CC(C)(C)CC3=O)c1	-10%	-9%
Cc1ccc(/C=C/c2onc(C)c2S(=O)(=O)N2CCC(C(=O)N3CCN(c4ccccc4F)CC3)CC2)cc1	-2%	-15%
O=S(=O)(c1c(Cl)cccc1Cl)N1CCNCC1	9%	15%
CCc1ccc(-c2nn(C)c(=O)c3c2CCCC3)cc1S(=O)(=O)Nc1ccccc1	295%[activator]	10%
CNC(=O)c1cccc(NC(=O)c2cccc(OCc3c(C)noc3C)c2)c1	18%	26%
CC(NC(=O)/C(=C/c1ccccc1)NC(=O)c1ccc(Br)o1)C(=O)O (configuration not stated)	-5%	-1%
CCn1c2ccccc2c2cc(CN3CCN(Cc4ccc(Cl)cc4)CC3)ccc21	-25%	-20%
CCOc1ccc(Nc2cc(C(=O)N3CCOCC3)c3ccccc3n2)cc1	76%[activator]	68%[activator]
O=C(O)CSCSCC(=O)O	-1%	16%
Cc1nc(C)c(CCC(=O)Nc2cc(Cl)ccc2F)c(=O)[nH]1	8%	15%
COc1cc(C(=O)Nc2nonc2-c2ccc(C)c(C)c2)cc(OC)c1OC	17%	-4%

Single records, from the list above:
CCc1ccc(-c2nn(C)c(=O)c3c2CCCC3)cc1S(=O)(=O)Nc1ccccc1 as listed: 2A Renilla = 295%[activator]; StopGo FLuc = 10%
COc1ccc(NC(=O)C2=C(C)Nc3c(C(=O)Nc4ccc(C)cc4)cnn3C2c2cccc(Cl)c2)cc1 (configuration not stated) as listed: 2A Renilla = 4%; StopGo FLuc = -7%

Going on with the list:
SMILES	2A Renilla	StopGo FLuc
COC(=O)c1cc2sc(Cl)cc2n1CC(=O)Nc1cc(C)cc(C)c1	-1%	3%
COc1ccccc1NC(=O)CSC1=Nc2ccccc2C2=NC(CCC(=O)NCCc3ccccc3)C(=O)N12 (configuration not stated)	-15%	-29%
N#CC1=C(N)OC2=C(C(=O)CCC2)C1c1ccc(C#N)cc1 (configuration not stated)	5%	12%
CCOC(=O)c1c(C)[nH]c(C)c1S(=O)(=O)N1CCCC(C(=O)N2CCN(c3cccc(C)c3C)CC2)C1 (configuration not stated)	-11%	4%
COC(=O)c1c(C)sc2c1OC(N)=C(C#N)C21C(=O)N(Cc2ccc(F)cc2)c2ccccc21 (configuration not stated)	?	?
CC(C)c1ccc(-c2csc(Nc3ccc(C(=O)O)c(O)c3)n2)cc1	-3%	94%[activator]
Cc1cc(C)cc(Nc2nc3ccccc3n3cnnc23)c1	3%	7%
O=C(C1CCN(S(=O)(=O)Cc2ccccc2)CC1)N1CCN(c2ccc(F)cc2)CC1	-2%	-7%
Cn1c(=O)c2c(ncn2CC(=O)Nc2ccc(C(C)(C)C)cc2)n(C)c1=O	-4%	5%
COc1cccc(NC(=O)C2CCN(S(=O)(=O)c3ccc4[nH]c5c(c4c3)CCCCC5)CC2)c1	-13%	-20%
CCNC(=S)Nc1cccc(Cl)c1Cl	0%	22%
CCOC(=O)c1[nH]c(C)c(CCC(=O)NCc2ccc(N(C)C)cc2)c1C	-3%	7%
O=C(COc1ccc2c(-c3ccccc3)cc(=O)oc2c1)NCCCN1CCOCC1	-1%	9%
CCCN(CCC)CCCNC(=O)c1cnn(-c2ccc(F)cc2)c1-n1cccc1	-23%	-20%
CC(C)N1C(=O)C(O)(CC(=O)c2ccncc2)c2ccccc21 (configuration not stated)	3%	12%
Cc1ccc(N(C)S(=O)(=O)c2c(-c3ccccc3)csc2C(=O)O)cc1	6%	-6%
O=C(c1ccc(Cl)cc1)N1CCC(c2nc3ccccc3o2)CC1	28%&32%	5%&-7%
O=C(NCCc1csc(-c2ccc(F)cc2)n1)c1c(F)cccc1Cl	15%	15%
CCCN1CCN(c2ccc(C(=O)O)cc2NS(=O)(=O)c2ccccc2)CC1	-12%	12%
CC1CCN(S(=O)(=O)c2ccc3c(ccc(=O)n3CC(=O)NCc3ccccc3Cl)c2)CC1	70%[activator]	17%
COc1cc(OC)c(N2CC(C(=O)Nc3c(C)nn(C)c3C)CC2=O)cc1Cl (configuration not stated)	-3%	-1%
Cc1ccc(NC(=O)Cn2c(=O)n(CCC(=O)NCc3ccccc3Cl)c(=O)c3ccccc32)cc1	17%	-18%
O=C1COc2ccc(-c3cc(-c4ccc(Cl)cc4)c4c(n3)-c3ccccc3OC4)cc2N1	-7%	-1%
O=C(CCC(=O)NC12CC3CC(CC(C3)C1)C2)Nc1cccnc1	5%	6%
CCCCNC(=O)c1ccc2c(c1)N=C(CC)c1ccccc1S2	65%[activator]	19%
Cc1nccc(-c2cccc(NC(=O)c3cccc[n+]3[O-])c2)n1	0%	30%
COc1ccc(NC(=O)Nc2ccc3nc(N4CCOCC4)cc(C)c3c2)cc1	0%	41%[activator]
Cc1ccc(Cl)c(OC(C)(C)C(=O)Nc2ncc(C)s2)c1	13%	19%
Cc1ccn2c(=O)cc(COc3ccc(NC(=O)COc4ccc(Cl)cc4)cc3)nc2c1	14%	0%
C=C(C)CN1CCN(c2nc3c(c(=O)[nH]c(=O)n3C)n2Cc2ccc(F)cc2)CC1	-7%	6%

Among those listed so far, 8 have fluorine.
SMILES	2A Renilla	StopGo FLuc
Fc1ccc(F)c(Nc2c3c(nc4ccc(Cl)cc24)CCC3)c1	4%	4%
Cc1ccc(/C=C/c2onc(C)c2S(=O)(=O)N2CCC(C(=O)N3CCN(c4ccccc4F)CC3)CC2)cc1	-2%	-15%
Cc1nc(C)c(CCC(=O)Nc2cc(Cl)ccc2F)c(=O)[nH]1	8%	15%
COC(=O)c1c(C)sc2c1OC(N)=C(C#N)C21C(=O)N(Cc2ccc(F)cc2)c2ccccc21 (configuration not stated)	?	?
O=C(C1CCN(S(=O)(=O)Cc2ccccc2)CC1)N1CCN(c2ccc(F)cc2)CC1	-2%	-7%
CCCN(CCC)CCCNC(=O)c1cnn(-c2ccc(F)cc2)c1-n1cccc1	-23%	-20%
O=C(NCCc1csc(-c2ccc(F)cc2)n1)c1c(F)cccc1Cl	15%	15%
C=C(C)CN1CCN(c2nc3c(c(=O)[nH]c(=O)n3C)n2Cc2ccc(F)cc2)CC1	-7%	6%

The list goes on.
SMILES	2A Renilla	StopGo FLuc
COc1ccc(NC(=O)Cn2c(SCc3ccc(C)cc3)nc3cccnc32)cc1OC	?	3%
CCOC(=O)c1c(C)[nH]c(C(=O)C(C)N(C)Cc2ccccc2)c1C (configuration not stated)	0%	0%
Cc1ccccc1Cn1cc(S(=O)(=O)c2ccc(F)cc2)c(=O)c2cc3c(cc21)OCO3	-11%	-24%
Cc1ccc2c(Cn3nnc(-c4ccccc4C)n3)cc(=O)oc2c1	1%	72%[activator]
COc1ccccc1-c1cc(C(=O)NCc2ccccc2)c2c(-c3ccc(C)cc3)[nH]nc2n1	86%[activator]	-12%
COc1cccc(NC(=O)Cn2cc(C#N)c3cc(Br)ccc32)c1	49%[activator]	11%
CN(CCOC(=O)c1cccc(Br)c1)C(C)(C)C	-10%	-4%
Cc1ccc(NCCC(=O)O)cc1	-3%	-2%
O=C(NC1CCCCCCC1)c1ccc2ncsc2c1	-1%[1.06 µM]	97%[activator]
CCNCc1ccc(C)o1	-1%	-2%
COc1ccc(NC(=O)CCCn2c(=O)c3cccn3c3ccccc32)c(OC)c1	-5%	-18%
CNC(=O)C(C)Sc1nc2ccc(F)cc2c(=O)[nH]1 (configuration not stated)	-4%	0%
CC(C)OCCCNC(=O)CC1CCCC1	6%	5%
O=C(CSc1nc(Cl)nc2nc[nH]c12)Nc1ccc(Cl)cc1	-10%	19%
Nc1ccc2oc(-c3ccc(-c4ccccc4)cc3)nc2c1	-4%	82%[activator]
CCCc1ncc(C[n+]2ccccc2C)c(N)n1	-16%	-19%
Cc1ccc(S(=O)(=O)N(Cc2cc3cccc(C)c3[nH]c2=O)CC2CCCO2)cc1 (configuration not stated)	110%[activator]	16%
Cc1ccc(C)c(NC(=O)N2CCN3CCCCC3C2)c1 (configuration not stated)	8%	22%
CC1CCN(c2nn3c(=O)c(C(=O)NCc4ccc(Cl)cc4)cnc3s2)CC1	-11%	-10%
COc1ccccc1C(NC(=O)CSc1c(Cl)cccc1Cl)c1nccn1C (configuration not stated)	8%	-10%
CCN(CC(=O)Nc1ccc2c(c1)OCCO2)Cc1cc(=O)oc2cc(C)c(C)cc12	115%[activator]	111%[activator]
NC(=O)COC(=O)c1cc(-c2ccccc2)nc2ccccc12	4%	16%
Cc1ccnc(Nc2nc(-c3ccc(F)c(C)c3)cs2)c1	?	50%[activator]
O=C(COC(=O)CCC(=O)c1ccc(F)cc1)Nc1ccccc1-c1ccccc1	-9%	1%
COc1ccc(-c2nc3n(n2)C(=O)CC(c2ccc(Cl)cc2)S3)cc1 (configuration not stated)	1%	0%
O=C(NC1CC1)C1CCCN1S(=O)(=O)c1ccc(Br)s1 (configuration not stated)	-3%	-9%
CCCn1nc(C(=O)N2CCN(S(=O)(=O)c3ccc(C)cc3C)CC2)c2ccccc2c1=O	32%[activator]	-5%
COc1ccc(CNC(=O)c2cccc3c2C(=O)N(c2ccc(OC)cc2)C3)cc1	0%	0%
O=c1[nH]c2ccccc2n1CCCN1CCC(n2c(=O)[nH]c3cc(Cl)ccc32)CC1	-11%	-29%
O=C(O)c1ccc(-c2ccc(CNCc3ccccc3)o2)cc1	13%	132%[activator]
CC(=O)N1CCCC1c1nc2ccccc2n1Cc1ccccc1 (configuration not stated)	-8%	-4%
O=C(CCn1nnc2ccccc21)OCC(=O)c1cccc(Br)c1	4%	11%
CCn1c(CN2CCOCC2)nnc1SCC(=O)c1cc(C)n(CC)c1C	26%	10%
COc1ccc(CNC(=O)c2cnc3sc(N4CCOCC4)nn3c2=O)cc1	-5%	-12%
CC1CN(C(=O)N2CCC(C(=O)N3CCN(c4ccccc4)CC3)CC2)c2cc(Cl)ccc2O1 (configuration not stated)	1%	-13%
Cc1cc(OCC(=O)NCc2ccc(-c3nc4ncccc4o3)cc2)ccc1Cl	16%	43%
O=C(COc1cccc(Br)c1)OCc1coc(-c2ccccc2)n1	4%	0%
O=C(COC(=O)c1cccnc1Nc1cccc(C(F)(F)F)c1)NCc1ccccc1Cl	-16%	-15%
CC(C)(C)C1CCc2c(sc(NC(=O)c3ccccc3F)c2C(=O)N2CCCCC2)C1 (configuration not stated)	3%	3%
CCCN1CCN(CCCNC(=O)Cn2c(-c3cccs3)cc3cc(Cl)ccc32)CC1	4%	-4%
O=C(C1CCCN1c1nnc(N2CCCC2=O)s1)N1CCN(c2cccc(Cl)c2)CC1 (configuration not stated)	-15%	-14%
COc1ccccc1NC(=O)c1cnc(Nc2ccc(C)c(Cl)c2)c2ccccc12	-7%	43%[activator]
CCC1(c2ccccc2)NC(=O)N(Cc2coc(-c3cccs3)n2)C1=O (configuration not stated)	-20%	-14%
COc1ccc(CCNC(=O)c2ccc(Cn3c(SCc4ccccc4)nc4cccnc43)cc2)cc1	-12%	2%
CCCCCNc1nc2ccccc2nc1NS(=O)(=O)c1cccc(Cl)c1	27%	-22%
CC(C)c1ccc(CNc2nc(-c3ccco3)nn2S(=O)(=O)c2ccc(F)cc2)cc1	-9%	81%[activator]
O=C(/C=C/c1ccc(-c2ccc(F)cc2)o1)N(C1CCCCC1)C1CCCCC1	2%	16%
COc1ccc(Cl)cc1NC(=O)CCc1ncc(-c2ccccc2)o1	7%	50%[activator]
O=C(Nc1ccc(F)cc1F)c1cc(CN2CCOCC2)on1	-9%	32%[activator]
CCOC(=O)C1=C(CN(C)Cc2ccccc2C)NC(=O)NC1c1ccc(Cl)cc1 (configuration not stated)	-3%	12%
Cc1cccc(NC(=O)c2csc3c2CCCC3)c1C	9%	100%[activator]
O=C(/C(C=Nc1ccccc1F)=C(/O)c1ccco1)C(F)(F)F	21%	0%
Cc1ccc(NC(=O)c2ccccc2Br)c(C(=O)c2ccccc2)c1	0%	12%
COc1cccc2c1cc1c(=O)n(CC(=O)NCc3ccc(C)o3)nc(C)n12	8%	13%
CCN(C(=O)Cn1nc(Cc2cccnc2)c2ccccc2c1=O)c1ccc(C)c(C)c1	16%	-7%
CCOC(=O)c1cnc2ccc(C)cc2c1Nc1ccc(N(CC)CC)cc1	?	?
CCCCNS(=O)(=O)c1ccc(C)c(-c2nnc3c4ccccc4c(C)nn23)c1	293%[activator]	0%
COc1ccccc1CNC(=O)CCC1N=C2c3ccccc3N=C(SCC(N)=O)N2C1=O (configuration not stated)	-3%	-8%
Cc1cc(C)cc(NC(=O)CSc2nc3c(cnn3-c3ccc(F)cc3)c(=O)[nH]2)c1	-2%	-16%
Cc1ccc2c(c1)C(CS(=O)(=O)NCCc1ccccc1)NC2 (configuration not stated)	90%[activator]	51%[activator]

(listing goes on)
SMILES	2A Renilla	StopGo FLuc
CCn1c(=O)c(C(=O)Nc2ccc(C(C)=O)cc2)nc2ccccc21	-2%	44%[activator]
Cc1ccccc1Cn1c(C(=O)O)c(CNCc2cccc(F)c2)c2ccccc21	-13%	-16%
CCCCc1c(C)nn(-c2nc(CC(=O)Nc3cccc(C(C)=O)c3)cs2)c1C	53%[activator]	12%
Cc1c(Cl)cccc1NC(=O)CSc1ncccc1C(=O)Oc1ccccc1Cl	-13%	47%[activator]
N#Cc1cc2c(nc1N1CCN(C(C(=O)O)c3c[nH]c4cc(Cl)ccc34)CC1)CCCC2 (configuration not stated)	-25%	-24%
COc1ccc(-c2c(-c3ccc4ccccc4c3)[nH]c3c2c(=O)[nH]c(=O)n3C)cc1	14%	13%
